Assay outcomes: PubChem, several laboratories
MLL AF4-AF9 inh: inhibitors of human MLL-AF4/AF9 interaction | hit rate 0.47% among 350,000 | P42568 | AlphaScreen, biotin-AF4 peptide binding to FLAG-AF9 | inhibition, % at 10 µM;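 active means every replicate reaching a set inhibition limit, whatever the replicate mean, cut at about 25% in these data; inconclusive means mean inhibition reaches that limit but some replicates miss it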;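 further: 0% = plate neutral control median and 100% = total signal loss; the record names both 10 and 1 µM as test concentration; the first replicate is given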
E coli growth: blocks Escherichia coli growth; OD600, 23 h; active compounds read low; OD600 absorbance (concentration not given with the values); hit rate 0.21% among 330,000;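 active means OD600 absorbance below the run mean of sample wells minus 3.6 SD, in any replicate, cut at about 0.56 in these data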;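 further: stock transfer was 300 nL into about 60 µL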
UCH37 DUB inh: human UCH37 deubiquitinating enzyme inhibition | Q9Y5K5 | purified proteasome/UCH37, Ub-AMC cleavage fluorescence | inhibition, % (test concentration not listed) | hit rate 0.33% among 330,000;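 active means mean of two replicates above 20%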;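 further: 0% = compound-free wells with enzyme and 100% = wells lacking proteasome; stock transfer was 100 nL into about 20 µL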
Target sequence (Q9Y5K5 whole entry, looked up): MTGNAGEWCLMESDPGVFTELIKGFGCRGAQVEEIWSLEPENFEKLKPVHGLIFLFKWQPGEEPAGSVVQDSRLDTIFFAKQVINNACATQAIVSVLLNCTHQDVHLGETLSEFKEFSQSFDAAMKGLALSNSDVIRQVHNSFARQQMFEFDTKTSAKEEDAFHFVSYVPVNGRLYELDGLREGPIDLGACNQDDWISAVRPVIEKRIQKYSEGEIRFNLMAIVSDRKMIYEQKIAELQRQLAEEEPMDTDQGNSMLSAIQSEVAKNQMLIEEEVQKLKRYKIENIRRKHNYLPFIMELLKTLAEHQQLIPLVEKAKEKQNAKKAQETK
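Signal – fluorescence, ex 355 nm, em 460 nm · System – Proteasome-bound UCH37 · Input – 0.15 nM proteasome as dispensed · Timing – 30 min preincubation with enzyme, 25 min cleavage at room temperature · Read-out basis – percent inhibition of cleavage signal versus uninhibited and no-proteasome wells · Medium – Tris-HCl pH 7.4 with ATP-MgCl2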
HNF4A DNA FP: change in binding of human HNF4 alpha to DNA | P41235 | AID 1224865 | activity change, % at 10 µM | hit rate 0.3% among 360,000 | HNF4a-FITC DNA binding, fluorescence polarization, 1 h; in the data active means activity change above about 30%, passing the limit was not always enough;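 further: controls were the assay level and a saturating level of protein; the project sought stronger binding though the title names inhibitors; some compounds called inactive have numbers as strong as hits; positive values seem to mean higher polarization but the record does not say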
Target sequence (P41235 whole entry, looked up): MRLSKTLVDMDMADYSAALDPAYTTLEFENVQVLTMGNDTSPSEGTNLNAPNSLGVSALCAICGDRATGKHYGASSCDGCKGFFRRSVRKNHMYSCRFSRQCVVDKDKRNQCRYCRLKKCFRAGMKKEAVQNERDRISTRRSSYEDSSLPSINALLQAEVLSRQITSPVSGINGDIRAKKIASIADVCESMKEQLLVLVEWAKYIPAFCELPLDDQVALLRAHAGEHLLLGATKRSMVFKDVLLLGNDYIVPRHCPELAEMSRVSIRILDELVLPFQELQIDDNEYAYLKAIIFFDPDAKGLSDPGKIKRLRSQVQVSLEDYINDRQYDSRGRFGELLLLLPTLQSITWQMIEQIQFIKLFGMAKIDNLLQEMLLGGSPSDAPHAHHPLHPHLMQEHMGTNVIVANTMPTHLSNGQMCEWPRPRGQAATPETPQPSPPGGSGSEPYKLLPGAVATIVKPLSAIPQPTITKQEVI
RanGTP-Imp inh: disruptors of Ran-importin-beta complex formation – biochemical, FRET, CFP-Ran, YFP-importin-beta, homogeneous, primary screen; cell-free CFP-Ran/YFP-importin-beta FRET ratio; inhibition, % (no concentration beside the values); hit rate 1.1% among 300,000;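 active means most replicates above 15%; inconclusive means exactly half above 15%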;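 further: 0% = DMSO wells and 100% = Ran loaded with GDP instead of GTP; wells of about 40 µL received 100 nL stock; the first replicate is given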
Vif A3G: inhibitors of Vif binding to APOBEC3G peptide, primary screen, biochemical, TR-FRET, GST-Vif 1-94, biotin-A3G peptide, dose response retest (AID 1117319); hit rate 0.57% among 260,000; one-dose inhibition, %; IC50 in µM for titrated hits; TR-FRET GST-Vif / biotin-A3G peptide binding; higher % means a stronger effect; test concentration not given here; strong numbers were not always called active;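 active means above the screen mean plus three standard deviations and confirmed in dose response; inconclusive means results disagree or hit not tested in dose response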;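 further: Vif residues 1-94 fused to GST binding biotinylated APOBEC3G peptide 110-148; 0% = full assay without inhibitor and 100% = GST in place of GST-Vif; retest series ran down from 100 µM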
FGF22 binding: binders of recombinant human FGF22 by thermal shift; calls only at 9.99 µM; Q9HCT0; SYPRO orange fluorescence; percent of sucrose octasulfate shift, DMSO zero; hit rate 1.5% among 340,000; AID 651658;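 active means melting point raised past a set limit in the mean and every replicate; inconclusive means no clear call; three in four hits are not shown here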
Target sequence (Q9HCT0 whole entry, looked up): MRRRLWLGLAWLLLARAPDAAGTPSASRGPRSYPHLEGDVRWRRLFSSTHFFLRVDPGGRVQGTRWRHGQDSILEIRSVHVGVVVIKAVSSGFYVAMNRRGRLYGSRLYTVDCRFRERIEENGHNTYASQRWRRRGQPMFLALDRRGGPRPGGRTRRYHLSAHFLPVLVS
Active calls of the source: *; i = inactive; ? = inconclusive; . = no result given; + = active, no number.

SMILES	MLL AF4-AF9 inh	E coli growth	UCH37 DUB inh	HNF4A DNA FP	RanGTP-Imp inh	Vif A3G	FGF22 binding
O=C(O)c1cccc(N/C(=N\S(=O)(=O)c2ccccc2)c2ccccc2)c1	-1.7	.	.	-2.3	1.4	12.4%	i
C=CCNC(=O)c1cc(Cl)cc(Cl)c1	0.2	0.67	1.2	-1.5	0.4	0.6%	i
CC(Cc1ccccc1)C(=O)N[C@@H](CO)Cc1ccccc1 (stereo not given in full)	.	.	5.1	-2.0	3.8	-2.3%	i
CCN(Cc1ccccc1)c1cc2c(c3c1ccn3C)C1CCC2C1 (stereo not given)	25.3*	.	.	3.9	.	.	i
CC(C)Cn1c(=O)c2c(nc3n2CCS3)n(C)c1=O	2.4	0.669	3.9	0.2	-0.4	.	i
Cc1cc(C)cc(NC(=O)COC(=O)c2cc(=O)[nH]c(=O)[nH]2)c1	-2.0	.	.	-0.5	-0.2	.	i
Cc1ccc(S(=O)(=O)N(CC(=O)N/N=C/c2ccco2)Cc2ccccc2)cc1	.	.	.	-1.6	-1.8	0.9%	.
Cc1ccccc1OCCCC(=O)Nc1ccc(Br)cc1	.	0.713	5.4	-3.6	-2.5	-0.8%	.
FC(F)(F)c1cc(-c2ccccc2)nc(NCC2CCCO2)n1 (stereo not given)	.	0.706	-5.4	0.6	4.3	5.7%	.
Cc1c(C)c2c(OCC(=O)NCc3ccccn3)cc3c(c2oc1=O)CCC(C)(C)O3	-1.0	0.786	i	-2.0	-4.5	.	i
O=C(CSc1nnc2scc(-c3ccccc3)n12)Nc1nsc(-c2ccc(Cl)cc2)n1	.	0.713	6.1	-6.7	-0.3	-0.7%	.
CCOC(=O)c1c(S(=O)(=O)N2CCN(c3ccc(C(C)=O)cc3)CC2)c(C)n(C)c1C	2.7	0.711	4.2	1.1	-0.5	0.5%	i
COc1ccc(CC(=O)OCC(=O)c2c[nH]c3ccccc23)cc1	-2.8	0.631	4.4	6.5	.	-4.6%	i
Cc1ccc(/C=N/n2c(COc3ccccc3)n[nH]c2=S)s1	.	.	.	0.0	-1.8	1.0%	.
CCCc1c(C(=O)N/N=C(\C)c2cccnc2)nnn1-c1nonc1N	-0.1	.	.	-0.4	.	-0.8%	i
CCc1ccc(/C=C\C(=O)N2CCCC2)cc1	-2.7	0.658	5.0	5.8	3.4	.	i
CCOC(=O)c1cnc(SCCc2ccccc2)nc1N	.	0.706	1.9	-0.9	0.5	-5.4%	.
O=Cc1cccn1-c1c(C(=O)O)cnn1-c1ccccc1	-0.8	0.71	-0.1	3.5	-2.4	4.9%	i
Cc1cc(NC(=O)CN2C(=O)NC3(CCCCC3C)C2=O)no1 (stereo not given)	.	0.711	2.0	6.2	?	.	.
Oc1ccccc1CNCC12CC3CC(CC(C3)C1)C2	1.2	0.642	5.5	5.2	0.0	4.9%	i

Fetched by structure from above (3):
SMILES	MLL AF4-AF9 inh	E coli growth	UCH37 DUB inh	HNF4A DNA FP	RanGTP-Imp inh	Vif A3G	FGF22 binding
O=C(O)c1cccc(N/C(=N\S(=O)(=O)c2ccccc2)c2ccccc2)c1	-1.7	.	.	-2.3	1.4	12.4%	i
Cc1ccccc1OCCCC(=O)Nc1ccc(Br)cc1	.	0.713	5.4	-3.6	-2.5	-0.8%	.
COc1ccc(CC(=O)OCC(=O)c2c[nH]c3ccccc23)cc1	-2.8	0.631	4.4	6.5	.	-4.6%	i

(list continues)
SMILES	MLL AF4-AF9 inh	E coli growth	UCH37 DUB inh	HNF4A DNA FP	RanGTP-Imp inh	Vif A3G	FGF22 binding
CCOc1ccc(NC(=O)CN(C)C(=O)c2ccccc2Cc2ccccc2)cc1OCC	8.8	0.702	-1.6	5.1	.	-2.9%	i
COc1ccc(C(=O)NNC(=O)CSc2nnnn2C)cc1	-2.4	0.711	3.3	-2.1	7.2	.	i
O=C1N[C@@H](Cc2ccccc2)C(=O)N2[C@H]1C[C@]1(Br)c3ccccc3N(S(=O)(=O)c3ccc(F)cc3)[C@H]21	4.0	.	1.6	-4.2	1.5	.	i
Cc1csc(NC(=O)CSc2nnc(-c3ccccn3)n2-c2ccc(C)c(C)c2)n1	.	0.726	-0.1	-1.3	-2.6	-5.6%	.
CCn1nc(C(=O)NNC(=O)c2cc(Cl)ccc2OC)c2ccccc2c1=O	-12.1	.	.	2.3	.	3.8%	i
O=C(/C=C/c1cccc(F)c1)Nc1cc(S(=O)(=O)N2CCOCC2)ccc1Cl	1.4	0.707	2.2	-2.1	.	-7.0%	i
Cc1ccc(-c2nc3ccccc3[nH]2)cc1NC(=O)c1ccco1	.	0.696	3.7	-1.7	3.2	1.3%	.
COc1ccccc1OCCNC(=O)C1CCN(C(C)=O)CC1	-2.8	0.7	-0.4	-0.8	3.2	27.0%	i
CCCn1nc(C(=O)NC2CCCCCC2)c2ccccc2c1=O	-1.9	0.684	3.8	-0.4	.	-5.2%	i
CCN(CCCNC(=O)c1cn(CC)c2ccc(S(=O)(=O)N(C)C)cc2c1=O)c1cccc(C)c1	.	0.688	4.9	1.7	-1.5	19.8%	.
COc1ccc(N(CC(=O)NCc2ccc(C)cc2)S(=O)(=O)c2c(C)noc2C)cc1	0.3	0.691	3.5	-0.9	2.9	0.8%	i
COc1ccc2c(C(F)(F)F)cc(=O)oc2c1C	.	0.695	1.7	-0.4	2.5	-0.6%	.
CN(CC(=O)NC(=O)NCc1ccco1)CC(=O)Nc1ccccc1Cl	.	0.722	-0.9	.	2.7	?	.
CN(C(=O)CSc1nnc2n1CCCCC2)C1(C#N)CCCCC1	-0.1	0.69	3.7	1.9	.	-8.1%	i
Cn1c(=O)n(C)c2cc([N+](=O)[O-])c(N3CCN(S(=O)(=O)c4ccc(C(C)(C)C)cc4)CC3)cc21	.	0.649	6.2	-5.7	-1.1	-7.7%	.
COC(=O)CCc1cccc(CCC(=O)OC)c1	-7.5	0.699	1.4	3.3	2.0	.	i
COC(=O)c1c(C(=O)OC)c(-c2ccc(Br)cc2)n2c1CS(=O)C2 (stereo not given)	0.7	0.657	4.2	5.9	2.9	7.1%	i
CCOc1ccc(N(CC(=O)NC2CCCC2)C(=O)CCC(=O)Nc2nccs2)cc1	-1.9	0.73	3.1	3.2	-0.6	-6.4%	i
COc1ccc(OC)c(CN2CCC(C(=O)N3CCOCC3)CC2)c1	-2.7	0.647	-0.4	-1.2	1.3	-5.0%	i
O=C(O/N=C1\CCCCC1c1ccc([N+](=O)[O-])cc1[N+](=O)[O-])c1c(F)cccc1F (stereo not given)	.	.	.	-5.0	-0.5	?	.
Cc1ccc2oc(C(=O)N(C)Cc3ccon3)c(C)c2c1	-4.5	0.659	2.0	1.0	2.8	.	i
CCN1CCN(C2=C(NS(=O)(=O)c3ccccc3)C(=O)c3ccccc3C2=O)CC1	9.1	0.702	11.6	-4.3	1.7	.	i
COc1cccc(/C=C/C(=O)c2ccc3c(c2)OCO3)c1OC	.	0.7	5.5	-3.5	.	-3.0%	.
CC(Sc1nnc(CN2CCCC2)n1Cc1ccccc1)C(=O)Nc1ccc(F)cc1 (stereo not given)	1.8	0.702	3.1	0.3	0.5	.	i
Cc1ccc(-c2nc3ccccc3n3nnnc23)cc1	.	.	.	-0.4	-4.1	-12.7%	.
O=C1C2CCCN2C(=O)N1CCCN1CCN(c2ccc([N+](=O)[O-])cc2)CC1 (stereo not given)	4.6	0.625	10.7	1.9	-0.7	-0.3%	i
Cc1c(CCO)sc[n+]1CC(=O)OC12CC3CC(CC(C3)C1)C2	-2.3	0.682	1.9	-0.6	-3.4	.	+
CCOC(=O)C1=C(C)NC2=C(C(=O)c3ccccc32)C1c1cccc2ccccc12 (stereo not given)	-51.0	0.712	5.4	5.1	0.1	7.3%	i
CCCCn1c(N)c(N(CC(C)C)C(=O)CSCC(=O)Nc2ccc(C)cc2)c(=O)[nH]c1=O	1.2	0.718	0.9	-2.6	.	17.1%	i
CCOc1ccc(NCC2CCOC(C)(C)C2)cc1 (stereo not given)	.	0.774	5.8	3.6	1.8	9.47µM*	.
Cc1ccc2c(-c3ccc([N+](=O)[O-])cc3)cc(=O)[nH]c2c1	1.4	0.711	-0.9	3.6	-3.6	15.8%	i
CCOc1ccc(C(=O)Nc2nnc(S(=O)(=O)N3CCCCC3)s2)cc1	0.9	0.709	-0.4	7.8	2.9	-7.5%	i
Cc1cc2c(SCC(=O)NCC3CCCO3)ncnc2s1 (stereo not given)	1.7	0.692	3.6	-2.2	-2.2	5.7%	.
Cc1ccc(C)c(N)c1	.	0.678	-1.0	2.5	.	.	i
CCOCCSc1nc2c(c(-c3cccs3)c1C#N)CC/C2=C/c1cccs1	.	0.735	-71.4	7.2	?	.	.
COc1cccc(S(=O)(=O)NCc2ccc(C(=O)NCc3ccccn3)cc2)c1	1.4	0.678	-0.5	-1.6	5.4	.	i
CC(=O)c1c(C)[nH]c(C(=O)CSc2nnc(-c3ccco3)o2)c1C	0.1	0.677	1.5	1.2	-1.9	.	i
Cc1[nH]c2ccccc2c1C(=O)C(=O)N1CC(C)OC(C)C1 (stereo not given)	-11.9	0.706	4.2	1.5	-0.4	.	i
CCCN(CC(=O)Nc1ccccc1OC)C(=O)CN1C(=O)NC2(CCCCC2)C1=O	0.0	0.614	1.2	3.7	.	-8.3%	i
O=C(Cc1ccc(NC(=O)C2CCCN(C(=O)C3CCCC3)C2)cc1)Nc1ccc(C(=O)N2CCOCC2)cc1 (stereo not given)	1.8	0.706	0.3	-4.0	.	-10.6%	i
Cc1cccc(-c2noc(-c3ccccc3C(=O)NCc3ccco3)n2)c1	2.3	0.663	0.5	2.8	-4.7	28.6%	i
O=C(CNc1cccc2ccccc12)N/N=C/c1ccc([N+](=O)[O-])cc1	1.2	.	.	1.9	.	10.9%	i
NC(=O)c1cc([N+](=O)[O-])c(Cl)cc1NCc1ccccn1	.	0.662	5.1	0.9	.	.	i
CCN(CCCNC(=O)C1CCC(=O)N1Cc1ccc(F)cc1)c1cccc(C)c1 (stereo not given)	.	0.735	-2.5	-0.6	-1.9	7.0%	.
COC(=O)c1sccc1NC(=O)Cn1cnc2c1c(=O)n(C)c(=O)n2C	.	0.717	2.4	2.1	-1.7	5.8%	.
COc1ccc(Nc2n[nH]c(N)c2C(N)=O)cc1	29.0*	0.688	-2.5	5.6	-0.1	-6.7%	i
COc1ccc(NC(=O)CCN2C(=O)C3C4C=CC(C4)C3C2=O)cc1 (stereo not given)	-5.0	0.68	-0.5	0.6	-4.2	-1.5%	i
COc1ccc(NC(=O)NS(=O)(=O)c2ccc(C)cc2)cn1	4.2	0.651	0.2	-69.4	-8.3	2.8%	i
O=C(NCc1ccccc1)c1onc(CSc2ccccn2)c1C(=O)NCc1ccccc1	-0.2	0.71	0.0	-0.8	1.9	8.4%	i
CC(C)C(C(=O)NCc1ccco1)N(C(=O)CNS(=O)(=O)c1ccccc1)c1ccccc1 (stereo not given)	-20.6	0.675	2.7	0.6	-3.1	?	i
CC(C)(C)c1nc(SCC(=O)Nc2ccc3c(c2)OCCO3)c2ccccc2n1	2.2	0.685	0.7	-1.0	0.5	-13.1%	i
Cc1ccc(C(=O)/C=C/Nc2cccc(O)c2)cc1	.	0.704	0.0	16.6	-8.2	1.6%	.
CC(C)(C)CC(=O)Nc1nnc(SCC(=O)NCc2cccs2)s1	-0.3	0.658	-0.3	-2.9	1.6	-5.2%	.
CN(Cc1cccs1)C(=O)CNC(=O)c1ccco1	1.4	0.738	7.3	-1.6	-0.4	-1.1%	i
O=C(c1cc(COc2ccc(F)cc2F)on1)N1CC2C[C@@H]3CC1C[C@H](C2)C3	0.1	0.663	1.3	1.6	0.5	-7.5%	i

The list is partial; the hit share may differ from the screen's.
